High-throughput results: PubChem BioAssay, several laboratories
Vif A3G: HIV-1 Vif–A3G interaction blockers – biochemical, TR-FRET, GST-Vif 1-94, biotin-A3G peptide, dose response retest, primary screen (AID 1117319); TR-FRET GST-Vif / biotin-A3G peptide binding; higher % means a stronger effect; test concentration not given here; strong numbers were not always called active; one-dose inhibition, %; IC50 in µM for titrated hits; 0.57% of 260,000 active;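 active = above the screen mean plus three standard deviations and confirmed in dose response; inconclusive = results disagree or hit not tested in dose response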;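 note: Vif residues 1-94 fused to GST binding biotinylated APOBEC3G peptide 110-148; 0% = full assay without inhibitor and 100% = GST in place of GST-Vif; retest series ran down from 100 µM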
Bfl-1 A1 inh: inhibitors of the anti-apoptotic protein A1, read as caspase activation; MEF A1-2A-BIM cells, Caspase-Glo 3/7 luminescence, 3 h; percent of clofoctol response, vehicle zero; caspase activation, % (no concentration beside the values); 0.066% of 330,000 active;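 active = over half of replicate activation scores above 10%, or exactly half above 10 with the replicate mean above 10; inconclusive = replicate mean below 10 yet half the replicates above 10; inactive = over half of replicates below 10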;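 note: wells of about 30 µL received 50 nL stock; many hits fall short of the cut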
RanGTP-Impb inh: disruptors of Ran-importin-beta complex formation – biochemical, FRET, CFP-Ran, YFP-importin-beta, homogeneous, primary screen; cell-free CFP-Ran/YFP-importin-beta FRET ratio; 1.1% of 300,000 active; inhibition, % (test concentration not listed); AID 2216;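 active = most replicates above 15%; inconclusive = exactly half above 15%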;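 note: 0% = DMSO wells and 100% = Ran loaded with GDP instead of GTP; wells of about 40 µL received 100 nL stock; the first replicate is given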
T cruzi repl: blocks replication of Trypanosoma cruzi; T. cruzi beta-gal in NIH3T3, luminescence, 90 h; inhibition, % (no concentration beside the values); 1.4% of 300,000 active; AID 1885;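 active = mean inhibition across valid replicates above about 55%, limit read from the data; inconclusive = mean below that limit but half or more replicates reach it; inactive = mean below it, under half of replicates reach it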;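 note: signal also drops with host cell toxicity which is not excluded here; 0% = plate median of DMSO wells and 100% = zero luminescence signal; higher percent means less beta-gal luminescence so fewer parasites; stock transfer was 50 nL into about 50 µL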
Ecoli rRNA inh: selective bacterial rRNA inhibition in E. coli; 1.6% of 350,000 active; GFP signal change (wild-type ribosome), % (no concentration beside the values); E. coli WT GFP vs humanized-ribosome RFP mutants, fluorescence, 24 h; active compounds read low; DMSO median 0, no signal -100; AID 720706;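 active = significant combined selectivity score with lowered wild-type GFP, culture density cut under 30%, mutant RFP and density less affected; inactive = any of these conditions unmet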; note: one replicate is shown; some compounds called inactive have numbers as strong as hits
MLL AF4-AF9 inh: inhibitors of human MLL-AF4/AF9 interaction; AID 651704; 0.47% of 350,000 active; inhibition, % at 10 µM; AlphaScreen, biotin-AF4 peptide binding to FLAG-AF9;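 active = every replicate reaching a set inhibition limit, whatever the replicate mean, cut at about 25% in these data; inconclusive = mean inhibition reaches that limit but some replicates miss it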;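 note: 0% = plate neutral control median and 100% = total signal loss; the record names both 10 and 1 µM as test concentration; the first replicate is given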
Target sequence (P42568 whole entry, looked up): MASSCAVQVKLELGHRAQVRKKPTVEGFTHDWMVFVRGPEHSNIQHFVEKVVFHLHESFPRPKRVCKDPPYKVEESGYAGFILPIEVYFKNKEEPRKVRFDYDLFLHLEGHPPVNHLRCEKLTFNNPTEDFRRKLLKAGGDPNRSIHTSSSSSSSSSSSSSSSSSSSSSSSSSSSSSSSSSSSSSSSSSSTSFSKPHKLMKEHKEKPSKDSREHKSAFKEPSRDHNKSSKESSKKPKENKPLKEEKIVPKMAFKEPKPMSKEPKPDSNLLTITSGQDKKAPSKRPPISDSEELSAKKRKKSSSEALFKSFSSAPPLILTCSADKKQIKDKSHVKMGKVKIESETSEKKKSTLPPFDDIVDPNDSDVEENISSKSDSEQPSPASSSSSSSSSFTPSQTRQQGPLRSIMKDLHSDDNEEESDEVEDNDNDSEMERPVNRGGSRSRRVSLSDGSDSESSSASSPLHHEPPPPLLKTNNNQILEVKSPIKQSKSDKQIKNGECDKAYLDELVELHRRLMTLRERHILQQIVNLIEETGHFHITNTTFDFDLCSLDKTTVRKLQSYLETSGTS
Calb FLC: affects C. albicans growth with fluconazole; C. albicans CaCi-2 (fluconazole-resistant clinical isolate) + fluconazole, Alamar Blue growth, 48 h; growth inhibition, % (test concentration not listed); 0.57% of 300,000 active; AID 1979;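 active = most replicates above 75%; inconclusive = exactly half above 75%; inactive = most below 75%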;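 note: all wells also contain fluconazole at 8 µg/ml as a sub-toxic cotreatment; 0% = median of DMSO wells and 100% = median of geldanamycin control wells; wells of about 8 µL received 7.5 nL stock; the first replicate is given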
Beta cell apopt: beta cell apoptosis inhibition. INS-1E cytokine-induced death, ATP luminescence, 48 h; percent of positive-control rescue, neutral wells zero. 0.8% of 300,000 active. AID 435005. protection from apoptosis, % (no concentration beside the values);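 active = all replicates at 75% or more, or half of them and the mean; inconclusive = half reach 75% but not the mean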;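 note: 0% = cytokine-treated negative control wells and 100% = positive control rescue; higher means more ATP so stronger rescue from cytokine killing; wells of about 40 µL received 100 nL stock; the first replicate is given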
Ecoli rRNA inh OD600: also measured in Ecoli rRNA inh; calls as there; OD600 change, %; measured here: OD600 growth;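 optical density of the mix in the first replicate; 0 = DMSO median and -100 = no signal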
Ecoli rRNA inh RFP: recorded beside Ecoli rRNA inh, whose call it bears; RFP signal change, %; measured here: RFP humanized mutant strains;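 first replicate; 0 = DMSO median and -100 = no signal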
Starred values were filed as active, the others as inactive; ? = inconclusive; . = no result given; & = joins results of further samples.

The line under a structure holds: Calb FLC	Ecoli rRNA inh RFP	T cruzi repl	Ecoli rRNA inh OD600	Bfl-1 A1 inh	MLL AF4-AF9 inh	Beta cell apopt	RanGTP-Impb inh	Vif A3G	Ecoli rRNA inh
CC(=O)Nc1ccc(S(=O)(=O)Nc2cccc(-c3csc(C)n3)c2)cc1
→ 13	.	7	.	0.6	-1.4	7	-2.5	-5%	.
CC(=O)Nc1cc[n+](CC(=O)c2cccc([N+](=O)[O-])c2)cc1
→ -9	0.5	-15	11	0.6	-2.8	5	-2.3	.	4
CCCc1nc(SCC(=O)N2CCCc3ccccc32)c2c(=O)n(C)c(=O)n(C)c2n1
→ -5	.	37	.	0.1	.	11	1.7	72%	.
Cc1ccccc1CNC(=O)COc1ccccc1
→ -2	2.3	13	9	1.0	-0.4	7	11	.	10
COc1cccc(-c2noc(C3CCCN(C(=O)CC(C)(C)C)C3)n2)c1 (stereo not given)
→ 8	5.5	14	3	-0.4	-2.9	-5	0.8	2%	6
Brc1ccc(NC(c2ccccc2)c2ccncc2)cc1 (stereo not given)
→ -1	1.8	6	8	0.4	5.2	-3	-1.5	1%	16
CN(Cc1ccccc1)c1ccc(N2C(=O)CCC2=O)cc1[N+](=O)[O-]
→ -9	4.8	-5	-6	0.0	-1.4	4	-0.1	5%	-2
Cc1csc2ncc(C(=O)N3CCCc4ccccc43)c(=O)n12
→ -2	10	-11	9	.	6.2	-6	-1.3	1%	-3
CSCCNC(=O)c1ccc(OC2CCN(S(=O)(=O)N(C)C)CC2)cc1
→ 1	2.9	-9	7	1.4	-3.2	.	-1.5	.	15
COC(=O)CNC(=O)COC(=O)/C=C/c1ccc2ccccc2n1
→ 36	-1.9	-1	-1	-0.8	1.3	-11	27*	2%	12
O=C(NC1CC2CCCC(C1)N2Cc1ccccc1)c1cccc(F)c1 (stereo not given)
→ -9	1.1	5	8	0.1	-1.4	1	0.1	.	15
CC1CCCN(C(=O)Cn2nnc(-c3ccc(S(C)(=O)=O)cc3)n2)C1 (stereo not given)
→ 10	-0.3	-5	13	1.0	-5.9	-4	1.4	.	11
CC[C@H](C)[C@H](NC(N)=O)C(=O)NCCc1ccc(OC)c(OC)c1
→ -2	.	-11	.	-1.0	-2.6	-2	-1.3	4%	.
COc1ccccc1-c1csc(-n2ncc(C#N)c2N)n1
→ 30	3.6	-15	3	0.5	-8.6	0	4.7	.	1
COc1ccc(C(OCC(O)CNCCc2ccccc2)c2ccc(OC)cc2)cc1 (stereo not given)
→ 18	20	18	-41	0.5	8.3	50	6.7	0%	-11
COc1ccc(CCNc2ncnc3c2[nH]c2cc(OC)c(OC)cc23)cc1OC
→ 3	-3.5	-14	1	0.4	19	7	3.2	.	-5
CCCC(=O)c1ccc2c(c1)OCCO2
→ -4	.	-8	.	0.3	.	-5	3.6	-2%	.
Cc1cc(NC(=O)Cn2nc(C(=O)O)c3ccccc3c2=O)c([N+](=O)[O-])cc1C
→ 3	-0.7	-5	19	-0.2	0.1	-3	2.1	0%	7
CC(C)c1nc(SCC(=O)NC(=O)NC(C)(C)C)n[nH]1
→ 6	-2.8	-3	1	-0.2	1.4	-4	0.4	5%	7
COc1ccc(/C=N/NC(=O)c2cc(=O)[nH]c3ccccc23)cc1OC
→ 3	-1.2	12	6	0.4	-0.1	.	3.1	7%	8

Random excerpt: four compounds from above.
The line under a structure holds: Calb FLC	Ecoli rRNA inh RFP	T cruzi repl	Ecoli rRNA inh OD600	Bfl-1 A1 inh	MLL AF4-AF9 inh	Beta cell apopt	RanGTP-Impb inh	Vif A3G	Ecoli rRNA inh
Brc1ccc(NC(c2ccccc2)c2ccncc2)cc1 (stereo not given)
→ -1	1.8	6	8	0.4	5.2	-3	-1.5	1%	16
Cc1cc(NC(=O)Cn2nc(C(=O)O)c3ccccc3c2=O)c([N+](=O)[O-])cc1C
→ 3	-0.7	-5	19	-0.2	0.1	-3	2.1	0%	7
COc1ccc(CCNc2ncnc3c2[nH]c2cc(OC)c(OC)cc23)cc1OC
→ 3	-3.5	-14	1	0.4	19	7	3.2	.	-5
CC[C@H](C)[C@H](NC(N)=O)C(=O)NCCc1ccc(OC)c(OC)c1
→ -2	.	-11	.	-1.0	-2.6	-2	-1.3	4%	.

The list continues.
The line under a structure holds: Calb FLC	Ecoli rRNA inh RFP	T cruzi repl	Ecoli rRNA inh OD600	Bfl-1 A1 inh	MLL AF4-AF9 inh	Beta cell apopt	RanGTP-Impb inh	Vif A3G	Ecoli rRNA inh
COc1cccc(NC(=O)Cn2c(CCC(=O)O)ccc2-c2ccc(Cl)cc2)c1
→ 36	-1.1	4	1	-0.4	0.4	1	-4.3	-4%	-4
C[N+]1([O-])[C@@H]2Cc3cc4c(cc3[C@@H]1Cc1cc3c(cc12)OCO3)OCO4 (stereo not given in full)
→ 18	1.3	-13	-3	-1.4	-6.3	3	9.4	.	1
COc1cccc(NC(=O)CN(C)C(=O)c2ccc(-c3cccc(C(F)(F)F)c3)o2)c1
→ -14	-3.3	0	1	0.4	?	-2	2.2	1%	2
O=C(COc1ccc(Br)cc1)N(Cc1cccs1)C1CCS(=O)(=O)C1 (stereo not given)
→ 1	-0.5	32	-3	-0.6	-0.4	1	18*	-3%	-5
O=C1CC(N2CCN(Cc3ccccc3)CC2)C(=O)N1CCc1ccccc1 (stereo not given)
→ -4	.	21	.	-0.4	.	-3	-4.4	6%	.
CCN(C(=O)c1ccco1)C1C2CC3CC(C2)CC1C3 (stereo not given)
→ -4	-0.4	4	-23	0.0	-0.1	-6	5.2	.	-16
CC(=O)c1ccc(Sc2ccccc2)cc1
→ -3	.	-2	.	.	.	-4	-4.9	26%	.
O=C(NCc1ccccc1F)c1ccc2c(c1)OCO2
→ 11	.	-14	.	1.4	.	-2	16*	4%	.
COc1cc(OC)c(OC)cc1CN(C)CCc1ccccn1
→ 1	.	10	.	0.4	.	-6	-0.5	2%	.
CC(C)Nc1nnc(SCC(=O)c2c[nH]c3ccccc23)s1
→ -2	.	-10	.	0.1	.	-24	-1.0	4%	.
O=C(CSc1nnnn1C1CCCCC1)Nc1cccc(NC(=O)c2ccco2)c1
→ -2	.	-19	.	-5.7	.	2	0.9	0%	.
O=C(c1ccc(Cl)c(S(=O)(=O)N2CCOCC2)c1)N1CCCCCC1
→ -2	1.4	-1	2	0.0	-2.1	-2	-3.1	.	7
CC(C)(C)c1ccc(-c2noc(-c3ccno3)n2)cc1
→ -8	1.2	-8	5	-0.6	.	15	7.6	.	6
CC1S/C(=N/N=C/c2ccco2)N(Cc2ccc(F)cc2)C1=O (stereo not given)
→ -15	3.0	4	0	-0.7	5.6	2	2.3	3%	-10
CC1(C)CC(NS(=O)(=O)c2ccc(C(C)(C)C)cc2)CC(C)(C)N1
→ -2	3.6	4	-10	-0.3	-2.4	-4	0.0	-7%	0
COc1ccc(N2CCN(c3nc4c(c(=O)n(C)c(=O)n4C)n3CCCc3ccccc3)CC2)cc1
→ -1	.	2	.	0.0	.	12	0.0	0%	.
Cc1noc(C)c1COC(=O)CN(C)S(=O)(=O)c1ccc(Cl)cc1
→ -1	.	0	.	-0.1	.	-4	6.2	?	.
COc1ccccc1C1C(C#N)=C(N)Oc2c1c(-c1ccccc1)nn2-c1ccccc1 (stereo not given)
→ -1	.	26	.	-0.6	.	6	3.0	.	.
O=c1c2ccccc2nc2n1C(CSCc1ccccc1)CS2 (stereo not given)
→ 1	.	-21	.	-0.2	.	13	-3.3	-1%	.
COc1ccc(S(=O)(=O)Nc2cc(S(=O)(=O)N3CCOCC3)ccc2OC)cc1
→ .	-0.4	.	7	-0.8	-0.7	-1	.	.	1

(more compounds)
The line under a structure holds: Calb FLC	Ecoli rRNA inh RFP	T cruzi repl	Ecoli rRNA inh OD600	Bfl-1 A1 inh	MLL AF4-AF9 inh	Beta cell apopt	RanGTP-Impb inh	Vif A3G	Ecoli rRNA inh
CNC(=S)NNC(=O)c1ccc(C(C)(C)C)cc1
→ -2	1.5	-20	-4	-1.1	2.4	-3	-7.1	8%	-6
COc1cccc(C(=O)COC(=O)C(C)N2C(=O)c3ccccc3C2=O)c1 (stereo not given)
→ 2	.	-19	.	0.1	.	-8	2.3	6%	.
COCCN1C(=O)N[C@@H](c2cccc(C(F)(F)F)c2)[C@H](C(=O)OC)[C@H]1C
→ -5	-0.9	-3	2	2.1	3.2	-7	-0.3	.	5
O=C(Nc1ccccc1)C1=C[C@@H](c2coc3ccccc3c2=O)C[C@@H](OCc2ccc(CO)cc2)O1
→ 11	5.9	21	-20	0.1	-23&3.2	3	3.2	21%	-14
Cc1ccc(OCCC(=O)OCC(=O)Nc2ccc(C)cc2Cl)cc1
→ 8	0.1	-3	4	-0.4	-9.7	-2	?	1%	4
COCCCNC(=O)CN1C(=O)CSc2ccc(S(=O)(=O)N3CCOCC3)cc21
→ -12	-0.3	-22	14	0.6	-5.5	-1	3.7	.	5
CC(C)n1ncc2c(C(=O)Nc3ccc(S(C)(=O)=O)cc3)cc(C3CC3)nc21
→ .	.	.	.	0.3	0.6	1	.	-18%	.
CN1CCN(c2ccc([N+](=O)[O-])cc2/C=N/NC(=O)c2ccc(F)cc2)CC1
→ 7	.	26	.	.	.	.	-2.1	5%	.
COc1cccc(-c2cc3nc4c(c(N5CCC6(CC5)OCCO6)n3n2)CCCC4)c1
→ -5	4.1	?	-7	0.9	-1.2	-4	0.6	-7%	-7
CCN1C(=O)C(CC(=O)Nc2ccc(F)cc2)N(Cc2ccco2)C1=S (stereo not given)
→ 4	-0.9	2	4	-0.6	-5.8	-6	4.1	.	1
N#Cc1c(Cl)nsc1NCCN1CCOCC1
→ -3	-1.1	-10	4	0.6	-1.7	-3	-4.3	-3%	7
Cc1ccc(SCc2ccc(C(=O)NCc3cccnc3)cc2)cc1
→ 1	.	5	.	1.0	.	12	0.9	.	.
CC(=O)Nc1ccc(S(=O)(=O)c2ccc(N)cc2)cc1
→ .	.	-20	.	-0.6	-0.9	.	-2.4	-3%	.
Cc1ccc(OC(=O)COc2ccccc2)c(-n2nc3ccccc3n2)c1
→ 3	.	-13	.	0.2	.	1	4.3	74%	.
COc1ccc(/C=N/NC(=S)NCC2CCCO2)cc1 (stereo not given)
→ -3	6.2	-17	7	0.3	3.5	1	-0.8	-4%	-8
O=C(O)CC/C(=N/NC(=O)CNC(=O)Cc1ccccc1)c1ccccc1
→ -4	-1.5	-10	11	1.2	-1.8	1	-2.4	32%	8
COc1ccc(-c2csc3ncn(CC(=O)N4CCOCC4)c(=O)c23)cc1
→ 23	-0.7	-10	-10	-0.1	-6.3	-7	1.0	2%	-1
CCC(C(=O)OC)n1cnc2c(cnn2-c2ccc(Cl)cc2)c1=O (stereo not given)
→ 5	.	-5	.	-0.6	.	1	0.4	5%	.
O=C(COC(=O)/C=C/c1cccc([N+](=O)[O-])c1)NCc1ccco1
→ -9	1.9	-5	20	-0.6	1.2	-5	-4.1	15%	21

This is a subset, so the mix of outcomes need not match the whole.
